# BJeLR viability: MLPCN primary cell-based screen for lethality selective to Ras in HRASV12 cells; 300,000 tested, 0.17% active; inhibition, % (no concentration beside the values); BJeLR (HRASV12) viability, CellTiter-Glo ATP luminescence, 48 h; reference of the scale not given here; AID 1554, 2009;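 active = replicate mean above 50%; inconclusive = above 50% but judged a plate artefact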;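 also: 50 nL library stock added to about 25 µL; numbers are from one replicate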
# Mtb hypoxia rep: PubChem AID 1159583; M. tuberculosis hypoxia-regulated fluorescent reporter, fluorescence; fluorescence inhibition, % (no concentration beside the values); 300,000 tested, 0.1% active;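 active = 35 to 45% if threefold the growth effect, above 45% if 1.5-fold the growth effect; inactive = the rest, general growth blockers included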;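 also: wells of about 50 µL received 100 nL stock; 0% = vehicle wells and 100% = reference inhibitor wells; whole bacteria with a GFP reporter of the hypoxia response; strong numbers were not always called active; many hits fall short of the cut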
# RN4220 kill: growth inhibition of S. aureus RN4220, primary screen, OD600; AID 1259311, 2017; inhibition, % (no concentration beside the values); 16 h; 330,000 tested, 0.33% active;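 active = z-score of -3 or lower and OD600 up to 0.18 on both plates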;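 also: plate controls were untreated cells for no effect and reference antibiotic for full effect; stock transfer was 100 nL into about 80 µL; one replicate is shown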
# ugtP null kill: growth inhibition of ugtP-null S. aureus, primary screen, RN4220 ugtP deletion, OD600; 16 h; some inactives read as strong as hits; growth inhibition, % (no concentration beside the values); 330,000 tested, 0.54% active; AID 1259309, 2017;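 active = z-score under -3 and OD600 up to 0.15 on both plates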;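 also: plate controls were untreated wells for no effect and antibiotic for full effect; wells of about 80 µL received 100 nL stock; the first replicate is given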
# Bead autofluor: counter-screen for toxin protease inhibitors: compound fluorescence. compound autofluorescence counterscreen, microsphere flow cytometry; active compounds read high. fluorescence intensity (no concentration beside the values). 360,000 tested, 3.1% active. AID 624483;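 active = at least 3 SD above the mean of all compounds, about 16000 in these data; inconclusive = too few beads counted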;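 also: 100 nL of 1 mM stock went into each well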
# PrP UTR inh: inhibition of PrP 5' UTR reporter expression. inhibition, % (no concentration beside the values). cell-based PrP 5' UTR mRNA reporter, plate reader. AID 488862, 2010. 340,000 tested, 0.35% active;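 active = every replicate at 50% or more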;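 also: 0 = median of the neutral control wells; tested in H4 reporter cells; numbers are from one replicate; inactives centre near -14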
# Mtb hypoxia rep growth: second read-out of Mtb hypoxia rep, no call of its own (marks repeat the call); growth inhibition, %; measured here: M. tuberculosis growth (absorbance);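 0% = vehicle and 100% = reference antibiotic; read after six days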
# * = called active by the depositor; ? = inconclusive; . = no result given.
SMILES,BJeLR viability,Mtb hypoxia rep,Mtb hypoxia rep growth,RN4220 kill,ugtP null kill,Bead autofluor,PrP UTR inh
CCc1cccc(C)c1NC(=S)N(CCCN1CCOCC1)Cc1cccnc1,-2,-3,4,5.6,4,3895,-22
Cc1onc(-c2ccccc2Cl)c1C(=O)Nc1ccc(-n2nncc2C(C)(C)C)cc1,8,4,7,-2.3,-3,9741,.
CCN(CC)CCNC(=O)c1ccc(NC(=O)COc2ccccc2F)cc1,5,10,7,1.7,9,2597,-11
O=C(Nc1ccc(-c2noc(CCc3ccccc3)n2)cc1)c1ccco1,5,.,.,-0.6,-19,4462,-79
S=C(Nc1nc2c(s1)CCCC2)NC1CC1,12,8,8,1.1,2,5738,-55
COC(=O)c1ccc(Cl)c(NC(=O)NC2CCCCC2)c1,-7,-4,4,-0.1,1,2995,-7
CC(C)CC(=O)NC(=S)N(Cc1ccccc1)Cc1ccccc1,7,14,5,7.1,7,2094,-8
c1ccc(Nc2nc3ccccc3n3nnnc23)cc1,-7,-1,-4,-0.6,-6,5221,-35
O=C(CSc1ncn(-c2ccccc2)n1)Nc1nncs1,-3,11,8,2.8,10,2049,-19
N#CCSc1ccc2nc(-c3ccccc3)cn2n1,-5,10,3,5.5,-3,5225,-53
CCOc1cc(Br)c(CN2C(=O)NC3(CCCCCC3)C2=O)cc1OCC,5,9,4,3.2,1,5508,6
COC(=O)c1ccc(/C=C2\SC(=S)N(CCCC(=O)N3CCOCC3)C2=O)cc1,.,2,17,0.6,4,3790,-18
C=C1C[C@@]23CCC4[C@@](C)(CCC[C@@]4(C)C(=O)O)C2CC[C@]1(O)C3 (stereo not given in full),.,1,7,11,6,5180,-22
CCN(CC(=O)Nc1ccc(NC(C)=O)cc1)C(=O)c1cc2c(s1)CCCCC2,.,15,22,0.5,6,3557,-30
CC1CCc2sc(C(=O)NNS(=O)(=O)c3ccc(F)c(F)c3F)cc2C1 (stereo not given),1,3,4,42,21,?,-10
CCOC(=O)C1CCN(C(=O)c2ccccc2N(C)S(C)(=O)=O)CC1,0,2,-4,0.1,16,?,-17
COc1ccc(N2CCN(c3ccc([N+](=O)[O-])cc3Cl)CC2)cc1,-5,-7,4,-3.4,2,2395,-10
O=S(=O)(NCc1ccccc1)c1ccc(S(=O)(=O)N2CCCCC2)cc1,3,5,9,9.6,3,9984,-11
O=C(COc1ccc2c3c(c(=O)oc2c1)CCC3)c1ccc2c(c1)OCO2,-3,10,9,11,-10,5481,-26
CCN(Cc1ccc(N(C)C)cc1)C(C)C(=O)Nc1ccc(S(=O)(=O)N2CCCC2)cc1 (stereo not given),.,7,2,1.6,6,3955,-16
CC(=O)c1c(C)[nH]c(C(=O)COC(=O)c2cccs2)c1C,.,7,3,6.0,15,2956,-69
COc1cc(C2c3c(-c4cc(Cl)c(C)cc4O)n[nH]c3C(=O)N2Cc2cccnc2)ccc1O (stereo not given),-19,-73,-1,5.4,20,3753,-18
CCc1ccc(-c2nc(CS(=O)CC(=O)NCc3ccc4c(c3)OCO4)c(C)o2)cc1 (stereo not given),-7,-4,-5,-1.6,2,4241,-1
Cc1ccc(S(=O)(=O)N(CC(=O)NCc2ccncc2)Cc2ccccc2F)cc1,3,7,2,7.4,7,2926,-14
CCc1ccc(C(C)=NNc2cc(Cl)nc(C)n2)cc1,.,2,5,-0.6,60,.,.
# Further compounds.
SMILES,BJeLR viability,Mtb hypoxia rep,Mtb hypoxia rep growth,RN4220 kill,ugtP null kill,Bead autofluor,PrP UTR inh
CC(=O)Nc1cccc(NS(=O)(=O)c2c(C)noc2C)c1,.,0,3,-0.5,-1,7468,-18
C#CCOC(=O)c1ccccc1C(=O)OCC#C,-4,.,.,2.5,-1,2823,-9
CCN(CC)S(=O)(=O)c1cccc(C(=O)N/N=C/c2cc(OC)c(O)c(OC)c2)c1,-11,.,.,.,.,2047,-18
O=C(CCOc1ccccc1)Nc1cccc([N+](=O)[O-])c1,-8,-4,-4,0.0,-15,2472,-27
COc1ccc(OCC(=O)NCCCNC(=O)COc2ccc(OC)cc2)cc1,.,19,44,1.0,2,3400,-12
O=C(c1ccc2ccccc2n1)N1CCN(c2ccccn2)CC1,-13,5,3,3.1,7,5216,6
CC(C)OCCCNC(=O)C(=O)NN=Cc1ccc(OCc2ccccc2)cc1,.,-3,4,2.6,7,.,.
COc1ccc(NS(=O)(=O)c2cc(C)ccc2NC(=O)c2cc(C)oc2C)cc1,32,10,-2,-9.9,19,3080,3
CCOc1cc(/C=N\Nc2nc(-c3ccc(C)cc3)c(NC(C)=O)s2)ccc1O,14,.,.,.,.,4338,3
CN(CCO)c1ccc([N+](=O)[O-])cc1C(=O)O,-4,.,.,1.4,13,3084,-16
CCOn1c(SCC)nc2ccccc2c1=O,9,4,8,4.5,-6,5338,-23
COC(=O)C(C)Sc1nc2ccsc2c(=O)n1Cc1ccccc1 (stereo not given),7,-12,6,6.4,14,3937,-16
CCC(C)(C(=O)NC1CCCCC1)N(C(=O)CNC(=O)c1ccccc1)c1c(C)n(C)n(-c2ccccc2)c1=O (stereo not given),-8,2,9,-2.6,4,4313,-14
O=C(O)CCC(=O)N1CCc2cc(S(=O)(=O)N3CCN(c4ccc(F)cc4)CC3)ccc21,0,-3,6,12,1,7351,-23
CCOC(=O)c1c(S(=O)(=O)NCC(=O)N2CCN(c3cccc(OC)c3)CC2)c(C)n(C)c1C,-10,8,5,2.4,16,6559,-11
COc1ccc(C)cc1NC(=O)CSc1nnc(-c2ccco2)n1N,6,10,5,5.9,16,15325,-15
C/C=C(\C)c1nnc(NC(=O)C(C)C)s1,2,.,.,4.2,2,4230,-21
O=C(CSc1ncccn1)NC(=O)Cc1ccccc1,.,7,4,3.9,8,4264,-16
Cc1ccc(N(CC(=O)Nc2ccc(F)cc2)S(=O)(=O)N2CCCC2)cc1,-9,6,11,6.4,-1,2713,-15
Cc1ccc(NC(=O)CC2CS(=O)(=O)CC2CC(=O)Nc2ccc(C)c(C)c2)cc1C (stereo not given),-8,-4,-12,3.3,-2,2755,-6
CN(C)/C=N/c1nc2nccc(-c3ccccn3)n2n1,-1,.,.,.,.,4603,-41
Cc1ccc(S(=O)(=O)N/N=C/c2ccccc2O)cc1[N+](=O)[O-],-1,.,.,.,.,4188,-33
O=C(CSc1ncnc2c1oc1ccccc12)Nc1cccc(C(F)(F)F)c1,3,6,0,-4.1,-8,5628,-33
CC(C)c1ccc(/C=N/NC(=O)CN(c2cccc(Cl)c2Cl)S(C)(=O)=O)cc1,-3,.,.,.,.,3440,-10
COc1ccc(CCNC(=O)CN2CCOc3ccccc32)cc1OC,-2,.,.,2.3,3,5104,-34

# Grouped by structure, the compounds so far containing an NH in an aromatic ring.
SMILES,BJeLR viability,Mtb hypoxia rep,Mtb hypoxia rep growth,RN4220 kill,ugtP null kill,Bead autofluor,PrP UTR inh
CC(=O)c1c(C)[nH]c(C(=O)COC(=O)c2cccs2)c1C,.,7,3,6.0,15,2956,-69
COc1cc(C2c3c(-c4cc(Cl)c(C)cc4O)n[nH]c3C(=O)N2Cc2cccnc2)ccc1O (stereo not given),-19,-73,-1,5.4,20,3753,-18

# Reformatted: entries from further up.
O=C(c1ccc2ccccc2n1)N1CCN(c2ccccn2)CC1
  BJeLR viability: -13	Mtb hypoxia rep: 5	Mtb hypoxia rep growth: 3	RN4220 kill: 3.1	ugtP null kill: 7	Bead autofluor: 5216	PrP UTR inh: 6

CC(C)OCCCNC(=O)C(=O)NN=Cc1ccc(OCc2ccccc2)cc1
  BJeLR viability: .	Mtb hypoxia rep: -3	Mtb hypoxia rep growth: 4	RN4220 kill: 2.6	ugtP null kill: 7	Bead autofluor: .	PrP UTR inh: .

COc1ccc(NS(=O)(=O)c2cc(C)ccc2NC(=O)c2cc(C)oc2C)cc1
  BJeLR viability: 32	Mtb hypoxia rep: 10	Mtb hypoxia rep growth: -2	RN4220 kill: -9.9	ugtP null kill: 19	Bead autofluor: 3080	PrP UTR inh: 3

CCOc1cc(/C=N\Nc2nc(-c3ccc(C)cc3)c(NC(C)=O)s2)ccc1O
  BJeLR viability: 14	Mtb hypoxia rep: .	Mtb hypoxia rep growth: .	RN4220 kill: .	ugtP null kill: .	Bead autofluor: 4338	PrP UTR inh: 3

# Record cards (already shown). Order of screens: BJeLR viability, Mtb hypoxia rep, Mtb hypoxia rep growth, RN4220 kill, ugtP null kill, Bead autofluor, PrP UTR inh
# Shown for CC(=O)Nc1cccc(NS(=O)(=O)c2c(C)noc2C)c1 = ., 0, 3, -0.5, -1, 7468, -18
# Shown for CCN(CC)CCNC(=O)c1ccc(NC(=O)COc2ccccc2F)cc1 = 5, 10, 7, 1.7, 9, 2597, -11
# Shown for CC(C)OCCCNC(=O)C(=O)NN=Cc1ccc(OCc2ccccc2)cc1 = ., -3, 4, 2.6, 7, ., .
# Shown for c1ccc(Nc2nc3ccccc3n3nnnc23)cc1 = -7, -1, -4, -0.6, -6, 5221, -35

# The listing continues.
SMILES,BJeLR viability,Mtb hypoxia rep,Mtb hypoxia rep growth,RN4220 kill,ugtP null kill,Bead autofluor,PrP UTR inh
CC1(C)C2C/C(=N\O)C(C)(/[N+]([O-])=C/c3cccc([N+](=O)[O-])c3)CC21 (stereo not given),-10,.,.,.,.,4833,-51
O=C1S/C(=C\c2ccc(N3CCOCC3)o2)C(=O)N1Cc1c(F)cccc1Cl,8,1,6,1.1,-1,13831,-11
CCN(Cc1cnn(C)c1)C(=O)c1cc(COc2ccc(F)cc2F)on1,-4,6,6,2.5,6,4177,-18
CC(C)NC(=O)N(C)CC1Oc2c(NC(=O)c3ccc(-c4nccs4)cc3)cccc2C(=O)N(C(C)CO)CC1C (stereo not given),.,6,9,5.1,-3,.,.
CN(CC(=O)Nc1ccc(F)c(F)c1F)C1CCCCC1,-3,.,.,5.7,5,4376,-20
Cc1ccn(C(C)CC(=O)N2CCc3ccccc32)n1 (stereo not given),2,8,5,4.0,2,5609,-15
Oc1ccc(Cc2ncc(C(F)(F)F)cc2Cl)cc1,1,11,9,1.4,9,3364,-5
CCOC(=O)c1c(NC(=S)NC(C)=O)sc(C)c1C,-8,6,7,3.0,0,2286,-6
Cn1ccnc1C(=O)c1ccc(N)cc1,-5,16,0,3.5,0,5246,-18
CNC(=O)/C=C1\NC(C)(C)Cc2c1ccc1ccccc21,-1,.,.,-2.7,6,2778,-11
Cn1c(=O)[nH]c(=O)c2c1nc(Br)n2CCC(=O)c1ccccc1,1,-66,-5,1.5,6,8944,0
CN(C)C=Nc1ncn(-c2ncc(C(F)(F)F)cc2Cl)n1,.,15,3,3.2,7,.,.
CC1CC2=C(C(=O)O1)C(c1ccc(Cl)cc1)Nc1ccccc1N2 (stereo not given),5,-2,0,-4.0,-3,2141,10
O=C(Nc1ncccn1)c1cc(-c2ccc(F)cc2)nc2ccccc12,-17,16,1,3.0,8,4754,-12
CC(Sc1nncn1C)C(=O)Nc1ccc(Cl)cn1 (stereo not given),10,17,4,8.0,3,2341,-13
C=CCn1c(C2CCCCC2)n[nH]c1=S,3,17,7,6.6,6,3227,-9
Cc1ccc(OCc2n[nH]c(=S)n2-c2ccc(Br)cc2)cc1,2,0,-2,3.9,-4,3242,-16
CCOC(=O)C1(CC2CC2)CCN(Cc2ccc(OC)cc2F)CC1,-3,-10,-4,1.2,3,2765,-35
